# Source: PubChem BioAssay
# RanGTP-Imp inh: disruptors of Ran-importin-beta complex formation – biochemical, FRET, CFP-Ran, YFP-importin-beta, homogeneous, primary screen; inhibition, % (no concentration beside the values); hit rate 1.1% among 300,000; AID 2216; cell-free CFP-Ran/YFP-importin-beta FRET ratio;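 active = most replicates above 15%; inconclusive = exactly half above 15%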;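 note: 0% = DMSO wells and 100% = Ran loaded with GDP instead of GTP; wells of about 40 µL received 100 nL stock; the first replicate is given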
# Ecoli rRNA inh: selective bacterial rRNA inhibition in E. coli | E. coli WT GFP vs humanized-ribosome RFP mutants, fluorescence, 24 h; stronger effect = lower value; DMSO median 0, no signal -100 | GFP signal change (wild-type ribosome), % (test concentration not listed) | hit rate 1.6% among 350,000 | AID 720706;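 active = significant combined selectivity score with lowered wild-type GFP, culture density cut under 30%, mutant RFP and density less affected; inactive = any of these conditions unmet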; note: one replicate is shown; some compounds called inactive have numbers as strong as hits
# Vif A3G: inhibitors of Vif binding to APOBEC3G peptide, primary screen, biochemical, TR-FRET, GST-Vif 1-94, biotin-A3G peptide, dose response retest (AID 1117319) | TR-FRET GST-Vif / biotin-A3G peptide binding; higher % means a stronger effect; test concentration not given here; strong numbers were not always called active | one-dose inhibition, %; IC50 in µM for titrated hits | hit rate 0.57% among 260,000;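 active = above the screen mean plus three standard deviations and confirmed in dose response; inconclusive = results disagree or hit not tested in dose response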;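 note: Vif residues 1-94 fused to GST binding biotinylated APOBEC3G peptide 110-148; 0% = full assay without inhibitor and 100% = GST in place of GST-Vif; retest series ran down from 100 µM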
# Beta cell apopt: blocks beta cell apoptosis; INS-1E cytokine-induced death, ATP luminescence, 48 h; percent of positive-control rescue, neutral wells zero; AID 435005; hit rate 0.8% among 300,000; protection from apoptosis, % (no concentration beside the values);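 active = all replicates at 75% or more, or half of them and the mean; inconclusive = half reach 75% but not the mean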;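 note: 0% = cytokine-treated negative control wells and 100% = positive control rescue; higher means more ATP so stronger rescue from cytokine killing; wells of about 40 µL received 100 nL stock; the first replicate is given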
# Calb FLC: C. albicans growth modulation with fluconazole; C. albicans CaCi-2 (fluconazole-resistant clinical isolate) + fluconazole, Alamar Blue growth, 48 h; growth inhibition, % (concentration not given with the values); hit rate 0.57% among 300,000;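 active = most replicates above 75%; inconclusive = exactly half above 75%; inactive = most below 75%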;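 note: all wells also contain fluconazole at 8 µg/ml as a sub-toxic cotreatment; 0% = median of DMSO wells and 100% = median of geldanamycin control wells; wells of about 8 µL received 7.5 nL stock; the first replicate is given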
# AF4-AF9 inh: MLL-AF4/AF9 protein interaction inhibition. AlphaScreen, biotin-AF4 peptide binding to FLAG-AF9. inhibition, % at 10 µM. hit rate 0.47% among 350,000. AID 651704;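 active = every replicate reaching a set inhibition limit, whatever the replicate mean, cut at about 25% in these data; inconclusive = mean inhibition reaches that limit but some replicates miss it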;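 note: 0% = plate neutral control median and 100% = total signal loss; the record names both 10 and 1 µM as test concentration; the first replicate is given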
# Target sequence (P42568 whole entry, looked up): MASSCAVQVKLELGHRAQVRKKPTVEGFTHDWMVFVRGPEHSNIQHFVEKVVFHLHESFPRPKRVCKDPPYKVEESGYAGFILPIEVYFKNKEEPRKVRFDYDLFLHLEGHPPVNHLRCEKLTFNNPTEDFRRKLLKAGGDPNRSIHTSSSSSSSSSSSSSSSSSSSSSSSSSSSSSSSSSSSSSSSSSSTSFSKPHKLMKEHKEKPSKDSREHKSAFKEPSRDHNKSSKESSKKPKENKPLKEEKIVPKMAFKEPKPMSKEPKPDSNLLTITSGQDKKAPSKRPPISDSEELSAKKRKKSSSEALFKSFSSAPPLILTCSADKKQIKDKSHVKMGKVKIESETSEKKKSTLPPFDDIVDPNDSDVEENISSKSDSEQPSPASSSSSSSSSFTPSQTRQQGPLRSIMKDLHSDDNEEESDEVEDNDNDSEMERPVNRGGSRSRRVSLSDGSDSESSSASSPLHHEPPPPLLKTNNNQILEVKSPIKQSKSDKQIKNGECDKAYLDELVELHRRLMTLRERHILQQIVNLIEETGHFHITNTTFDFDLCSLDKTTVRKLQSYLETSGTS
# Bfl-1 A1 inh: inhibitors of the anti-apoptotic protein A1, read as caspase activation; hit rate 0.066% among 330,000; MEF A1-2A-BIM cells, Caspase-Glo 3/7 luminescence, 3 h; percent of clofoctol response, vehicle zero; caspase activation, % (test concentration not listed);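 active = over half of replicate activation scores above 10%, or exactly half above 10 with the replicate mean above 10; inconclusive = replicate mean below 10 yet half the replicates above 10; inactive = over half of replicates below 10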;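 note: wells of about 30 µL received 50 nL stock; many hits fall short of the cut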
# T cruzi inh: T. cruzi replication inhibition | T. cruzi beta-gal in NIH3T3, luminescence, 90 h | inhibition, % (no concentration beside the values) | hit rate 1.4% among 300,000 | AID 1885;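 active = mean inhibition across valid replicates above about 55%, limit read from the data; inconclusive = mean below that limit but half or more replicates reach it; inactive = mean below it, under half of replicates reach it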;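 note: signal also drops with host cell toxicity which is not excluded here; 0% = plate median of DMSO wells and 100% = zero luminescence signal; higher percent means less beta-gal luminescence so fewer parasites; stock transfer was 50 nL into about 50 µL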
# Ecoli rRNA inh OD600: second read-out of Ecoli rRNA inh, no call of its own (marks repeat the call); OD600 change, %; measured here: OD600 growth;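 optical density of the mix in the first replicate; 0 = DMSO median and -100 = no signal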
# Ecoli rRNA inh RFP: further read-out of Ecoli rRNA inh, marked with its call; RFP signal change, %; measured here: RFP humanized mutant strains;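 first replicate; 0 = DMSO median and -100 = no signal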
# * hit, by the source's call; ? = inconclusive; · = no result given; & = joins results of further samples. These rows are one share of the data; the hit share may differ from the screen's.
Compound	RanGTP-Imp inh	Ecoli rRNA inh	Ecoli rRNA inh OD600	Ecoli rRNA inh RFP	Vif A3G	Beta cell apopt	Calb FLC	AF4-AF9 inh	Bfl-1 A1 inh	T cruzi inh
CC(C)C(=O)Nc1ccc(-c2nc3cccnc3o2)cc1	3.6	·	·	·	-5%	3	-6	·	-1.4	0
C=CCn1c(SCC(=O)NCC2CCCO2)nc2sc(C)c(C)c2c1=O (stereo unspecified)	2.1	3	0	-4.9	·	-6	7	-1.1	-0.8	-5
O=C(CCS(=O)(=O)Cc1ccccc1F)NCCCN1CCCCC1	2.5	·	·	·	-3%	4	3	·	0.7	3
Fc1ccc(-n2nnc(-c3ccccc3Cl)n2)cc1	-3.9	-11	-7	-2.5	·	1	0	-2.9	2.9	-6
C/C(=N\Oc1cccc(F)n1)c1ccc(Cl)cc1Cl	2.4	·	·	·	-2%	-1	-17	·	-0.1	-38
COc1ccc(-c2csc(-n3cccn3)n2)cc1	5.0	7	1	0.9	·	-4	-23	-1.4	-9.4	-2
CCc1ccc(OCC(=O)Nc2nnc(C3CCCC3)s2)cc1	-2.2	1	6	-1.1	2%	3	2	-1.1	-0.4	-26
O=C(NCCN1CCCCC1)c1ccc(/C=N/O)nc1	-0.6	7	12	1.3	·	-8	1	-1.3	-0.3	-6
Cc1ccc(S(=O)(=O)N2CCC(C(=O)NNC(=O)c3ccccc3)CC2)cc1	2.6	20	28	1.3	-7%	4	-3	0.6	2.0	-1
CCCc1nccn1S(=O)(=O)c1cc(OC)ccc1OC	1.6	·	·	·	0%	-6	-15	·	0.1	-17
O=C(Nc1cc2c3c(c1)CC(=O)N3CCC2)c1ccc(F)cc1	-0.7	-1	8	1.1	1%	5	-5	0.1	0.4	4
Cn1c(CNC(=O)c2ccco2)nnc1SCC(=O)Nc1ccc(Cl)cc1	2.8	-3	0	2.8	-5%	·	11	-1.7	0.1	1
O=C(CNCC1CCCO1)Nc1ccc(N2CCCCCC2)cc1 (stereo unspecified)	-5.6	·	·	·	8%	3	-8	·	0.3	25
COc1cc(/C=C2\CC/C(=C\c3ccc(OCCO)c(OC)c3)C2=O)ccc1OCCO	·	3	5	1.2	-4%	-1	4	-1.0	0.3	-8
CC(O)CNc1nc(Cl)c(C#N)s1 (stereo unspecified)	-1.5	8	5	2.4	-9%	-2	4	-1.5	0.6	-17
COC(=O)c1cc2c(C)nn(C)c2s1	3.6	11	2	-0.3	-5%	6	11	·	0.5	-6

# A draw from above in order of molar mass, high to low:
Compound	RanGTP-Imp inh	Ecoli rRNA inh	Ecoli rRNA inh OD600	Ecoli rRNA inh RFP	Vif A3G	Beta cell apopt	Calb FLC	AF4-AF9 inh	Bfl-1 A1 inh	T cruzi inh
COc1cc(/C=C2\CC/C(=C\c3ccc(OCCO)c(OC)c3)C2=O)ccc1OCCO	·	3	5	1.2	-4%	-1	4	-1.0	0.3	-8
Cn1c(CNC(=O)c2ccco2)nnc1SCC(=O)Nc1ccc(Cl)cc1	2.8	-3	0	2.8	-5%	·	11	-1.7	0.1	1
CC(O)CNc1nc(Cl)c(C#N)s1 (stereo unspecified)	-1.5	8	5	2.4	-9%	-2	4	-1.5	0.6	-17

# Other results.
Compound	RanGTP-Imp inh	Ecoli rRNA inh	Ecoli rRNA inh OD600	Ecoli rRNA inh RFP	Vif A3G	Beta cell apopt	Calb FLC	AF4-AF9 inh	Bfl-1 A1 inh	T cruzi inh
Cc1c(C)c2c(OCC(=O)Nc3cccnc3)cc3c(c2oc1=O)CCC(C)(C)O3	4.4	·	·	·	·	3	-3	1.1	-0.8	-22
CC(=O)Nc1ccc(NC(=O)c2ccc(NS(=O)(=O)c3cc(C(C)(C)C)cc(C)c3C)cc2)cc1	5.0	18	12	-10	-3%	-8	14	1.4	0.7	-5
Cc1nc2ccc(OC(=O)c3ccccc3)cc2s1	0.4	-17	-18	-2.3	·	-4	-20	4.0	-0.7	-13
CC(C)NC(=O)c1ccc(-c2cccc(C(F)(F)F)c2)o1	-0.1	·	·	·	2%	-3	-2	·	-0.4	-2
Cc1cccc(N(C)S(=O)(=O)c2ccc3c(c2)CCC(=O)N3)c1	-1.8	·	·	·	7%	-10	5	·	1.4	-1
Cc1cn(S(=O)(=O)c2ccccc2[N+](=O)[O-])cn1	4.0	21	18	-1.0	-3%	-5	-1	-0.5	0.1	-10
CN1CCN(c2nc3c(c(=O)[nH]c(=O)n3C)n2Cc2ccc([N+](=O)[O-])cc2)CC1	-1.8	10	5	-1.4	·	-9	7	-0.5	0.9	-4
COc1ccc(-n2ncc3c(N4CCC(C(N)=O)CC4)ncnc32)cc1	2.4	-7	3	-0.2	66%&6%	4	-14	·	0.3	-7
O=[N+]([O-])c1ccc(N2CCN(S(=O)(=O)c3ccc(Cl)cc3)CC2)cc1NCc1cccnc1	4.3	-2	2	0.3	0%	-7	8	·	1.4	60*
Cc1cc(C)c2c(C)c(C(=O)NCc3ccncc3)oc2c1	2.9	·	·	·	-3%	2	-2	·	-0.5	-16
O=C(COC(=O)c1cccc(Cl)c1)Nc1cc(Cl)ccc1Oc1ccccc1	?	3	3	0.3	1%	3	4	-4.4	-0.3	0
Clc1cccc(-c2ccc(C=Nc3ccc(N4CCOCC4)cc3)o2)c1	?	·	·	·	13%	-5	-2	·	-0.6	53
Cn1c(SCC(=O)c2ccccc2)ncc(C(=O)Nc2ccccc2)c1=O	2.8	-2	10	-1.2	-15%	·	15	1.4	-1.0	-18
CCCCN1C[C@H](Cc2ccccc2)[C@@H](CC(=O)NCc2ccc(OC)cc2)C1=O	-2.0	-26	-34	-3.9	·	5	3	-6.3	0.0	8
CC(C)CN(C1CCS(=O)(=O)C1)S(=O)(=O)c1ccc2ccccc2c1 (stereo unspecified)	-2.2	0	-2	-1.4	-17%	-4	-3	-8.0	-0.3	-3
CC(C)OC(=O)CCC1(C(=O)O)CCC(=O)NC1 (stereo unspecified)	4.1	10	-1	-2.2	-3%	1	-1	-2.0	-0.1	-12
CCOc1cc(C=C(C#N)C#N)ccc1Oc1ccc([N+](=O)[O-])cn1	2.0	10	30	3.4	-2%	8	4	-13	-2.1	5
CCc1ccc(/C=C2/SC(=S)N(CC(=O)Nc3nc4ccccc4s3)C2=O)cc1	2.3	·	·	·	11%	0	2	·	-0.6	5
Nc1nc(N2CCN(C(=O)c3ccco3)CC2)nc2ccc(Br)cc12	2.7	·	·	·	·	·	?	·	-4.6	23
COc1ccc(CCN(C)Cc2c(O)ccc3cc(Br)ccc23)cc1OC	3.1	-27*	-9.0*	-0.8*	-2%	-2	4	11	1.0	14
Cc1ccc(C)c(NC(=O)CSc2ccc(S(=O)(=O)N3CCCC3)cn2)c1	·	·	·	·	4%	9	·	-1.3	0.1	·
CCOCCCNC(=S)NCCNc1nc2c(C)cccc2cc1C#N	21*	·	·	·	5%	·	-11	·	-0.3	55*
CC(=O)c1ccccc1NS(=O)(=O)c1c(C)nn(-c2ccccc2)c1C	-0.1	·	·	·	4%	5	-13	·	1.8	0
COc1cc(OC)cc(C(=O)NCCNC(=O)c2ccccn2)c1	-1.2	4	12	-0.9	·	1	-3	0.0	-0.1	-2
O=[N+]([O-])c1cccc(NN=Nc2ccccc2)c1	-1.2	3	14	-2.5	-12%	4	-7	14	-3.9	4
COc1ccc(C2=NS(=O)(=O)N(C)C(C(=O)NCc3ccc4c(c3)OCO4)=C2)cc1	-0.3	-2	-5	0.4	·	-4	7	-2.0	0.1	1
Cc1ccccc1N1CCN(S(=O)(=O)c2nnc(NC(=O)c3ccco3)s2)CC1	-0.9	-68	-77	-26	·	2	4	-6.0	0.1	-11
Cc1cccc(C2c3[nH]c4ccccc4c3CCN2C(=O)c2cc(C(C)C)nc(N)n2)n1 (stereo unspecified)	2.9	-6	0	-1.7	-11%	-1	42	10	0.7	22
CC1CCCCN1CCNC(=O)C1CCN(S(=O)(=O)N2CCCCC2)CC1 (stereo unspecified)	4.9	·	·	·	-3%	-2	-4	·	-0.2	-1
CC(NS(=O)(=O)c1ccc(Cl)c(Cl)c1)C(=O)Nc1cccnc1 (stereo unspecified)	·	3	-2	4.5	·	-4	·	0.0	-0.3	·
O=C(CCc1ccccc1)n1nc(-c2ccccc2)nc1NCc1ccco1	-3.7	13	0	-3.6	5%	0	-12	-26	-0.8	-11
Cc1ccc2c(c1)C(=O)CCCCC(=O)N2	-1.2	4	1	6.5	5%	-6	0	1.1	-0.1	-3
Cc1cc2c(OCC(O)CN3CCCC3)cccc2[nH]1 (stereo unspecified)	-2.9	13	-13	0.0	3%	-4	-9	?	0.0	3
CC1=CC(C)(C)N(S(=O)(=O)c2ccc(C)cc2)c2cc(C)ccc21	-3.0	·	·	·	-6%	51	-12	·	1.8	10
COc1ccc(S(=O)(=O)Nc2cccc3c2O[C@H](CN(C)C(=O)NC(C)C)[C@@H](C)CN([C@H](C)CO)C3=O)cc1	·	0&5	-1&6	1.5&1.7	·	5	·	-1.7&-1.6	-0.7	·
COC(=O)c1ccc(NC(=O)C(=O)N2CCN(C(=S)Nc3ccc(C)cc3)CC2)cc1	5.2	-2	-6	-7.3	·	6	2	5.2	0.0	-28
Cc1nn(S(=O)(=O)c2ccccc2)c(C)c1S(=O)(=O)N1CCOCC1	-1.1	10	15	-1.2	·	-7	-6	2.8	0.3	14
O=C(NCCC(=O)N1CCN(S(=O)(=O)c2ccccc2)CC1)c1ccc(Br)cc1	?	-3	-2	-1.1	-3%	-2	-2	0.3	-0.3	-6
CC(C)Cc1nnc(NS(=O)(=O)c2ccc([N+](=O)[O-])cc2)s1	-4.9	8	11	-2.3	-4%	-4	-3	0.8	1.2	3
CCC(=O)N1CCc2cc(S(=O)(=O)CCC(=O)O)ccc21	0.8	·	·	·	-1%	-1	-1	·	0.3	-13
CC(C)(C)C(=O)CSc1nccc(=O)[nH]1	1.9	-1	9	-4.6	-5%	-7	-7	11	0.3	14
Cn1cnc(S(=O)(=O)Nc2cc(-c3ccc(Cl)cc3)nn2C)c1	-0.9	3	-1	1.4	4%	-7	-11	4.6	0.0	-2
NNc1nnc2c3cc(F)ccc3n(Cc3ccccc3)c2n1	0.0	-1	-1	14	-5%	6	-2	-7.3	-0.4	14
